D1 mod = D1 CRE-luciferase signal change, two-sided – cell-based, HEK293 D1, dopamine EC30, D1 allosteric modulator project, primary screen; dopamine EC30 potentiation; actives deviate in either direction; B-score at 10 µM; D(1A) dopamine receptor (Homo sapiens), P21728; actives 5.9% (n = 58,000);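 active means luminescence count or its row- and column-corrected plate score outside the 99.7% band of the plate's sample wells, on either side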
Hsp90 block = tumor Hsp90 inhibitors, primary screen, cell lysate, fluorescence polarization, NCI-N417 lysate; Cy3B-geldanamycin FP displacement; Heat shock protein HSP 90-alpha (Homo sapiens), P07900; AID 429, 2006; actives 0.35% (n = 64,000); inhibition, % at 30 µM;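 active means inhibition above 50%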;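 further: 0% = tracer plus lysate wells and 100% = tracer alone without lysate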
HER2 expr 66K = inhibitors of Her2 protein expression, primary screen, SKBR-3 cells, AlphaScreen, 66K library; Receptor tyrosine-protein kinase erbB-2 (Homo sapiens), P04626; SKBR-3 HER2 protein level, 18-24 h; active compounds read low; HER2 level % of control, % at 10 µM; actives 0.69% (n = 65,000); AID 645, 2007;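 active means HER2 level under 5% of the carrier-only control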;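 further: 100% = DMSO carrier and 0% = 500 nM PU-H71 HSP90 inhibitor; lower value means stronger loss of Her2 protein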
5HT1a ag = human 5-HT1a receptor agonists, primary screen, cell-based, CHO, Ga15 NFAT-bla reporter. CHO 5-HT1a Ga15 NFAT-bla reporter, FRET ratio; 0% basal, 100% maximal reference agonist. actives 0.56% (n = 65,000). 5-hydroxytryptamine receptor 1A (Homo sapiens), P08908. activation, % at 10 µM;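 active means activation above the screen-wide mean activation plus 3 SD, cut at about 19% in these data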;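 further: 0% = DMSO wells and 100% = 5-CT at EC100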
E coli RNAP = E. coli RNAP inhibitors, biochemical | DNA-directed RNA polymerase subunit beta (Escherichia coli (strain K12)), P0A8V2 | E. coli RNA polymerase, fluorescence transcription assay | inhibition, %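 (tested at 10 µM)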 | actives 0.2% (n = 62,000) | AID 559, 2006; in the data active means inhibition above about 20%;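 further: 0% = enzyme without compound and 100% = no enzyme blank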
Numbers without * were called inactive; . = not tested or not shown; & = joins results of further samples. Some of the compounds tested (hit frequency here may not be typical).

Sample of the layout:
Every second line gives: D1 mod, Hsp90 block, HER2 expr 66K, 5HT1a ag, E coli RNAP
> NC(N)=NC(=O)c1nc(Cl)c(N)nc1N
→ -2.27, 0.2&-0.2, 120.3, -1.8, -1.3
> CN1C2CCC1CC(OC(=O)c1c[nH]c3ccccc13)C2 (stereo unspecified)
→ -1.01, -0.7&3.7, 131.1, -0.6, -8.3
> Cc1cn([C@H]2C[C@H](N=[N+]=[N-])[C@@H](CO)O2)c(=O)[nH]c1=O
→ -0.151, -7.0, 106.8, -0.8, 6.9
> OCc1ccccc1OCCOc1ccc(Cl)c2cccnc12
→ 1.12, -4.3, 69.9, 1.3, 10.6
> CCN(CC)CCNC(=O)c1cc(S(C)(=O)=O)ccc1OC
→ -0.523, 5.7&3.7, 102.8, -1.0, 15.0
> CC(CN1c2ccccc2Sc2ccccc21)N(C)C (stereo unspecified)
→ -5.47, 6.3&5.5, 93.5, -1.3, 4.5
> COc1ccc2c(c1)c(CC(=O)OCC(=O)O)c(C)n2C(=O)c1ccc(Cl)cc1
→ 0.491, -7.0, 89.9, 0.1, 5.7

This part in full, from the start:
Every second line gives: D1 mod, Hsp90 block, HER2 expr 66K, 5HT1a ag, E coli RNAP
> NC(N)=NC(=O)c1nc(Cl)c(N)nc1N
→ -2.27, 0.2&-0.2, 120.3, -1.8, -1.3
> CN1C2CCC1CC(OC(=O)c1c[nH]c3ccccc13)C2 (stereo unspecified)
→ -1.01, -0.7&3.7, 131.1, -0.6, -8.3
> Cc1cn([C@H]2C[C@H](N=[N+]=[N-])[C@@H](CO)O2)c(=O)[nH]c1=O
→ -0.151, -7.0, 106.8, -0.8, 6.9
> OCc1ccccc1OCCOc1ccc(Cl)c2cccnc12
→ 1.12, -4.3, 69.9, 1.3, 10.6
> CCN(CC)CCNC(=O)c1cc(S(C)(=O)=O)ccc1OC
→ -0.523, 5.7&3.7, 102.8, -1.0, 15.0
> CC(CN1c2ccccc2Sc2ccccc21)N(C)C (stereo unspecified)
→ -5.47, 6.3&5.5, 93.5, -1.3, 4.5
> COc1ccc2c(c1)c(CC(=O)OCC(=O)O)c(C)n2C(=O)c1ccc(Cl)cc1
→ 0.491, -7.0, 89.9, 0.1, 5.7
> CN(C)CCN(Cc1ccccc1)c1ccccn1
→ -4.11, -0.9, 91.9, 1.4, 3.9
> Cc1cc(S(=O)(=O)NCC(C)C)ccc1OCC(=O)N1CCOCC1
→ 0.155, -1.1, 93.6, -2.0, 5.4
> CCC(C(=O)OCCN(CC)CC)c1ccccc1 (stereo unspecified)
→ -0.0362, -2.6, 105.4, -2.2, 4.1
> Cc1nc2ccc(S(=O)(=O)NCC(=O)NCCN3CCCCCC3)cc2s1
→ 0.498, -5.5, 112.4, -2.3, 13.2
> O=C(NC1CCCCCC1)c1cc(S(=O)(=O)N2CCC3(CC2)OCCO3)ccc1F
→ 0.0503, -4.6, 102.5, -3.1, -0.6
> C=CCNC(=O)C1CCN(c2nc(C)cc(-c3ccccc3)n2)CC1
→ -1.55, -9.8, 98.4, 0.0, -5.2
> COc1ccc(Nc2ncnc3c2cnn3Cc2ccccc2)cc1OC
→ 5.17*, 6.2, 75.0, 0.2, 8.4
> CC(C)C[C@H]1C(=O)N2CCC[C@H]2[C@]2(O)O[C@](NC(=O)[C@@H]3C=C4c5cccc6[nH]c(Br)c(c56)CC4N(C)C3)(C(C)C)C(=O)N12 (stereo partly specified)
→ 24.2*, -7.0, 118.2, 10.3, 10.0
> COc1c(N2CCNC(C)C2)c(F)cc2c(=O)c(C(=O)O)cn(C3CC3)c12 (stereo unspecified)
→ 0.376, 1.0, 96.8, -3.0, -7.8
> CC(=O)O[C@]1(C(C)=O)CC[C@H]2[C@@H]3C[C@H](C)C4=CC(=O)CC[C@]4(C)[C@H]3CC[C@@]21C
→ -0.575, -3.7, 104.4, 3.5, 6.6
> N#Cc1c(-c2ccco2)cc(-c2ccc(F)cc2)nc1N
→ 9.94*, -5.5, 7.3, 1.3, -10.5
> Cc1cc(C)c2c(n1)nn1c(NCCCN(C)C)cc(C)nc21
→ -0.225, -4.6, 96.5, -4.4, .
> O=C(O)CCNC(=O)c1ccccc1
→ 0.0451, -2.1, 99.6, 1.4, 10.2
> Nc1nc(N)c2nc(-c3ccccc3)c(N)nc2n1
→ -0.408, 3.5&-0.7, 108.5, 9.4, -36.0
> Cc1cc(C(=O)NCCCN2CCCC2=O)no1
→ -0.806, -25.0, 89.0, -0.2, 8.0
> Cc1ccc(C)c(OCCCC(C)(C)C(=O)O)c1
→ -0.403, -2.6, 97.4, 1.7, 11.4
> C[C@H]1C[C@H]2[C@@H]3CCC4=CC(=O)C=C[C@]4(C)[C@@]3(Cl)[C@@H](O)C[C@]2(C)[C@@]1(O)C(=O)CO
→ -0.421, -4.8, 96.7, -1.4, 6.8
> COc1cc(-c2nnc(-c3ccc(N4CCOCC4)cc3)o2)cc(OC)c1OC
→ -0.24, -2.3, 97.8, 0.9, 1.5
> NC(=O)N1c2ccccc2C=Cc2ccccc21
→ 0.791, -3.2&-2.5, 112.9, -0.4, 11.0
> NS(=O)(=O)c1cc2c(cc1Cl)NCNS2(=O)=O
→ -0.218, -7.0&1.8, 92.9, 0.5, 5.9
> CCCCC(=O)Nc1nnn(CCC)n1
→ -0.0243, 0.3, 83.9, 0.7, -1.7
> COc1ccccc1N1CCN(C(=O)c2cc(-c3ccc(Cl)cc3)on2)CC1
→ -0.776, -3.6, 64.0, -1.6, 8.3
> CC1=C(/C=C/C(C)=C/C=C/C(C)=C/C(=O)O)C(C)(C)CCC1
→ -0.89, -2.1&2.1, 78.0, -2.2, 13.9
> O=C(O)c1cc(NS(=O)(=O)c2cccc3ccccc23)ccc1O
→ 0.266, 0.2, 49.8, -2.7, 11.4

Entries of single compounds, looked up by structure. Values in the order: D1 mod, Hsp90 block, HER2 expr 66K, 5HT1a ag, E coli RNAP
Cc1ccc(C)c(OCCCC(C)(C)C(=O)O)c1 is listed with -0.403, -2.6, 97.4, 1.7, 11.4
CN1C2CCC1CC(OC(=O)c1c[nH]c3ccccc13)C2 (stereo unspecified) is listed with -1.01, -0.7&3.7, 131.1, -0.6, -8.3

Marked active in D1 mod (from the list above):
molecule,D1 mod,HER2 expr 66K,5HT1a ag,E coli RNAP
COc1ccc(Nc2ncnc3c2cnn3Cc2ccccc2)cc1OC,5.17*,75.0,0.2,8.4
CC(C)C[C@H]1C(=O)N2CCC[C@H]2[C@]2(O)O[C@](NC(=O)[C@@H]3C=C4c5cccc6[nH]c(Br)c(c56)CC4N(C)C3)(C(C)C)C(=O)N12 (stereo partly specified),24.2*,118.2,10.3,10.0
N#Cc1c(-c2ccco2)cc(-c2ccc(F)cc2)nc1N,9.94*,7.3,1.3,-10.5

Screens: PubChem BioAssay, several laboratories
